A1 apoptosis 2 = compounds inhibiting A1, read as caspase activation | 24,000 tested, under 10 active | MEF A1-2A-BIM cells, caspase-Glo luminescence, 3 h; percent of clofoctol response, DMSO zero | caspase activation, % (test concentration not listed) | AID 2465; in the data active means caspase activation above about 5.9%;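 further: wells of about 30 µL received 50 nL stock; the first replicate is given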
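Material: A1-2A-BIM-expressing MEF cells. Buffer or medium: RPMI-1640 plus 10% FBS. Incubation: cells settled overnight, compound exposure 3 h at 37 °C, 5% CO2. Signal: Caspase-Glo 3/7 luminescence, 1 h at room temperature.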
An asterisk follows results filed as active.

SMILES	A1 apoptosis 2
COc1ccc(NC(=O)Nc2ccc3c(c2)C(=O)N([C@H](C)CO)C[C@@H](C)[C@H](CN(C)S(=O)(=O)c2ccc(C)cc2)OCCCC[C@H](C)O3)cc1	-0.9
C[C@H]1CN([C@@H](C)CO)C(=O)c2cc(NC(=O)Nc3ccc4c(c3)OCO4)ccc2O[C@@H]1CN(C)Cc1ccc(Cl)c(Cl)c1	0.3
Cc1noc(C)c1S(=O)(=O)N(C)C[C@H]1Oc2ccc(NC(=O)C3CCCCC3)cc2CC(=O)N([C@@H](C)CO)C[C@H]1C	0.6
C[C@@H]1CN([C@@H](C)CO)C(=O)Cc2cc(NC(=O)C3CCCCC3)ccc2O[C@H]1CN(C)S(=O)(=O)c1cn(C)cn1	-1.1
COc1ccc(NC(=O)Nc2cccc3c2O[C@H](CN(C)S(=O)(=O)c2ccc(OC)cc2)[C@H](C)CN([C@H](C)CO)C3=O)cc1	-0.7
C[C@@H]1CN([C@@H](C)CO)C(=O)c2cc(NC(=O)Nc3ccc(F)cc3)ccc2O[C@H]1CN(C)Cc1ccc(Oc2ccccc2)cc1	-0.4
O=C1O[C@H](c2ccccc2)[C@H](c2ccccc2)N2[C@H]1[C@@H](C(=O)O)[C@]1(C(=O)Nc3ccc(C#CC4=CCCCC4)cc31)[C@H]2c1ccc(O)cc1	-0.8
C[C@@H]1CCCCO[C@@H](CN(C)Cc2ccc3c(c2)OCO3)[C@H](C)CN([C@H](C)CO)C(=O)c2cc(NS(=O)(=O)c3ccccc3)ccc2O1	0.4
C[C@H](CO)N1C[C@H](C)[C@H](CN(C)C(=O)Cc2ccccc2)OCCCC[C@H](C)Oc2ccc(N(C)C)cc2C1=O	-0.8
Cc1ccc(S(=O)(=O)N(C)C[C@H]2Oc3ccc(NS(C)(=O)=O)cc3C(=O)N([C@@H](C)CO)C[C@@H]2C)cc1	-0.2
O=C(N/N=C/c1ccc(O)cc1Br)c1ccccc1O	-6.7
C[C@H]1CN([C@@H](C)CO)C(=O)CCCn2cc(nn2)CO[C@H]1CN(C)S(=O)(=O)c1ccccc1	1.1
C[C@@H]1CN([C@H](C)CO)C(=O)c2cc(NC(=O)C3CCCCC3)ccc2O[C@@H]1CN(C)C(=O)Nc1ccc(C(F)(F)F)cc1	-0.7
Cc1noc(C)c1NC(=O)N(C)C[C@H]1Oc2ccc(NC(=O)Nc3cccc4ccccc34)cc2C(=O)N([C@H](C)CO)C[C@@H]1C	1.0
C[C@H](CO)N1C[C@H](C)[C@H](CN(C)S(=O)(=O)c2cn(C)cn2)OCCCC[C@H](C)Oc2ccc(NC(=O)CCC(F)(F)F)cc2C1=O	-0.5
C[C@H](CO)N1C[C@H](C)[C@@H](CN(C)Cc2ccc(C(=O)Nc3ccccc3N)cc2)Oc2ccc(NC(=O)CCC(F)(F)F)cc2CC1=O	-0.6
C[C@@H]1CN([C@@H](C)CO)C(=O)c2cc(NS(=O)(=O)c3ccc(F)cc3)ccc2O[C@@H](C)CCCCO[C@H]1CN(C)Cc1ccc2c(c1)OCO2	0.7
Cc1noc(C)c1S(=O)(=O)Nc1cccc2c1O[C@@H](CN(C)C(=O)Nc1ccccc1)[C@@H](C)CN([C@H](C)CO)C2=O	-0.1
C[C@H](CO)N1C[C@H](C)[C@@H](CN(C)Cc2ccc(Cl)c(Cl)c2)OCCCC[C@H](C)Oc2ccc(NC(=O)Nc3ccc(C(F)(F)F)cc3)cc2C1=O	-1.4
COc1ccc(S(=O)(=O)Nc2cccc3c2O[C@@H](CN(C)Cc2ccc4c(c2)OCO4)[C@H](C)CN([C@@H](C)CO)C3=O)cc1	-0.5
C[C@@H]1CN([C@H](C)CO)C(=O)c2cccc(NC(=O)Nc3ccc(F)cc3)c2O[C@H]1CN(C)S(=O)(=O)c1ccc(Cl)cc1	-1.6
COc1ccc(NC(=O)Nc2ccc3c(c2)C(=O)N([C@@H](C)CO)C[C@@H](C)[C@@H](CN(C)S(=O)(=O)c2ccccc2)OCCCC[C@H](C)O3)cc1	0.1
C[C@@H]1CN([C@H](C)CO)C(=O)Cc2cc(NS(=O)(=O)c3ccc(Cl)cc3)ccc2O[C@H]1CN(C)Cc1ccc(C(=O)O)cc1	0.8
C[C@@H]1CCCCO[C@@H](CN(C)C)[C@@H](C)CN([C@H](C)CO)C(=O)c2cc(NS(=O)(=O)c3ccc(F)cc3)ccc2O1	-0.3
C[C@@H]1CN([C@@H](C)CO)C(=O)Cc2cc(NS(=O)(=O)c3ccc(F)cc3)ccc2O[C@H]1CN(C)Cc1ccc2c(c1)OCO2	0.6
Cc1noc(C)c1S(=O)(=O)Nc1ccc2c(c1)C(=O)N([C@H](C)CO)C[C@H](C)[C@@H](CN(C)C(=O)NC(C)C)O2	-0.1
O=C1NCC(=O)N2[C@@H]1C[C@@H](C(=O)NCc1ccc(F)cc1)[C@H]2c1ccc(O)cc1	0.2
COc1ccc(NC(=O)Nc2cccc3c2O[C@@H](CN(C)Cc2ccc(Oc4ccccc4)cc2)[C@@H](C)CN([C@H](C)CO)C3=O)cc1	-1.7
C[C@@H]1CN([C@H](C)CO)C(=O)c2cc(NS(=O)(=O)c3ccccc3)ccc2O[C@H]1CN(C)Cc1ccncc1	0.6
C[C@H](CO)N1C[C@H](C)[C@H](CN(C)C(=O)Nc2ccc(C(F)(F)F)cc2)Oc2c(NS(C)(=O)=O)cccc2C1=O	0.1
COC(=O)c1cn(CC(=O)N2CCOCC2)nn1	0.5
C[C@H]1CN([C@@H](C)CO)C(=O)c2cc(NC(=O)Nc3ccccc3)ccc2O[C@@H]1CN(C)S(C)(=O)=O	-0.1
C[C@@H]1CN([C@H](C)CO)C(=O)c2cc(N(C)C)ccc2O[C@@H](C)CCCCO[C@@H]1CN(C)S(=O)(=O)c1ccccc1	1.5
C[C@@H]1CCCCO[C@H](CN(C)S(=O)(=O)c2ccc(F)cc2)[C@@H](C)CN([C@@H](C)CO)C(=O)c2cc(NC(=O)c3ccncc3)ccc2O1	-0.7
C[C@H]1CCCCO[C@@H](CN(C)S(=O)(=O)c2ccccc2)[C@@H](C)CN([C@@H](C)CO)C(=O)c2cc(NC(=O)Nc3ccccc3)ccc2O1	0.0
C[C@@H]1CN([C@H](C)CO)C(=O)c2cc(NC(=O)Cn3cnnn3)ccc2O[C@@H]1CN(C)C(=O)Nc1ccc2c(c1)OCO2	0.0
C[C@H]1CN([C@@H](C)CO)C(=O)c2cc(NC(=O)Nc3ccccc3)ccc2O[C@H]1CN(C)C(=O)Nc1ccc(C(F)(F)F)cc1	-0.1
C[C@@H]1CN([C@@H](C)CO)C(=O)c2cc(NC(=O)Nc3ccccc3)ccc2O[C@@H](C)CCCCO[C@@H]1CN(C)C(=O)CCCN(C)C	1.0
C[C@H]1CN([C@@H](C)CO)C(=O)c2cccc(NS(=O)(=O)c3cn(C)cn3)c2O[C@H]1CN(C)S(C)(=O)=O	0.4
C[C@@H]1CN([C@H](C)CO)C(=O)c2cc(NC(=O)CCCCCC(=O)Nc3ccccc3N)ccc2O[C@H]1CN(C)C(=O)Nc1ccc(F)cc1	1.3

For reference, part of the list above.
SMILES	A1 apoptosis 2
C[C@@H]1CN([C@H](C)CO)C(=O)c2cccc(NC(=O)Nc3ccc(F)cc3)c2O[C@H]1CN(C)S(=O)(=O)c1ccc(Cl)cc1	-1.6
COc1ccc(NC(=O)Nc2ccc3c(c2)C(=O)N([C@@H](C)CO)C[C@@H](C)[C@@H](CN(C)S(=O)(=O)c2ccccc2)OCCCC[C@H](C)O3)cc1	0.1
C[C@@H]1CN([C@H](C)CO)C(=O)Cc2cc(NS(=O)(=O)c3ccc(Cl)cc3)ccc2O[C@H]1CN(C)Cc1ccc(C(=O)O)cc1	0.8
C[C@@H]1CCCCO[C@@H](CN(C)C)[C@@H](C)CN([C@H](C)CO)C(=O)c2cc(NS(=O)(=O)c3ccc(F)cc3)ccc2O1	-0.3
C[C@@H]1CN([C@@H](C)CO)C(=O)Cc2cc(NS(=O)(=O)c3ccc(F)cc3)ccc2O[C@H]1CN(C)Cc1ccc2c(c1)OCO2	0.6

(more compounds)
SMILES	A1 apoptosis 2
C[C@H]1CCCCO[C@@H](CN(C)Cc2ccc3c(c2)OCO3)[C@@H](C)CN([C@@H](C)CO)C(=O)c2cc(NS(=O)(=O)c3cccs3)ccc2O1	-0.3
Cc1noc(C)c1NC(=O)Nc1ccc2c(c1)C(=O)N([C@H](C)CO)C[C@H](C)[C@H](CN(C)S(=O)(=O)c1ccc(Cl)cc1)OCCCC[C@@H](C)O2	2.1
C[C@H](CO)N1C[C@H](C)[C@H](CN(C)Cc2ccc(C(F)(F)F)cc2)Oc2ccc(NC(=O)Nc3ccc(C(F)(F)F)cc3)cc2C1=O	-0.5
O=C(NCc1ccccc1)c1ccc(Br)cc1[N+](=O)[O-]	-0.7
C[C@@H]1CN([C@@H](C)CO)C(=O)c2cccc(NC(=O)Nc3ccc(F)cc3)c2O[C@H]1CN(C)S(=O)(=O)c1cn(C)cn1	0.0
O=C(/C=C/c1ccc(OCCCCc2ccccc2)cc1)NO	2.5
C[C@H]1CN([C@@H](C)CO)C(=O)c2cc(NC(=O)CCCN(C)C)ccc2O[C@H]1CN(C)Cc1ccc2c(c1)OCO2	-0.4
C[C@@H]1CN([C@@H](C)CO)C(=O)c2cc(NC(=O)CCC(F)(F)F)ccc2O[C@@H](C)CCCCO[C@H]1CN(C)C(=O)Cc1ccccc1	2.4
C[C@H](CO)N1C[C@H](C)[C@@H](CN(C)S(=O)(=O)c2ccccc2)Oc2c(NC(=O)Nc3ccc4c(c3)OCO4)cccc2C1=O	-1.2
O=C1O[C@@H](c2ccccc2)[C@@H](c2ccccc2)N2[C@@H](c3ccc(OCCO)cc3)[C@]3(C(=O)Nc4ccc(C#CC5=CCCCC5)cc43)[C@@H](C(=O)N3CCCCCCC3)[C@H]12	-0.3
Cc1ccc(S(=O)(=O)N(C)C[C@H]2OCCCC[C@@H](C)Oc3ccc(NC(=O)CCCN(C)C)cc3C(=O)N([C@@H](C)CO)C[C@@H]2C)cc1	-0.9
CC(C)NC(=O)N(C)C[C@H]1Oc2ccc(NC(=O)CCC(F)(F)F)cc2CC(=O)N([C@H](C)CO)C[C@H]1C	-0.8
COc1ccc(NC(=O)N(C)C[C@@H]2Oc3ccc(NC(=O)Nc4ccc5c(c4)OCO5)cc3CC(=O)N([C@H](C)CO)C[C@@H]2C)cc1	0.2
C[C@@H]1CN([C@@H](C)CO)C(=O)Cc2cc(NS(=O)(=O)c3ccc(Cl)cc3)ccc2O[C@@H]1CN(C)S(=O)(=O)c1ccccc1	0.6
COc1ccc([Si](C)(C)[C@H]2[C@H](CCO)O[C@@]3(C(=O)N(Cc4ccc(N5CCCCC5=O)cc4)c4ccccc43)[C@@H]2C)cc1	2.0
C[C@@H]1CN([C@H](C)CO)C(=O)CCCn2nncc2CO[C@@H]1CN(C)C(=O)Nc1ccccc1	-0.8
C[C@@H]1CN([C@H](C)CO)C(=O)c2cc(NS(C)(=O)=O)ccc2O[C@H]1CN(C)Cc1ccc(Cl)c(Cl)c1	0.0
C[C@H]1CCCCO[C@H](CN(C)C(=O)Nc2ccccc2)[C@@H](C)CN([C@@H](C)CO)C(=O)c2cc(NS(=O)(=O)c3cn(C)cn3)ccc2O1	-0.3
CNC[C@H]1OCCCC[C@H](C)Oc2ccc(NS(C)(=O)=O)cc2C(=O)N([C@@H](C)CO)C[C@@H]1C	0.5
COc1ccc(CN(C)C[C@H]2OCCCC[C@H](C)Oc3ccc(NC(=O)NC(C)C)cc3C(=O)N([C@@H](C)CO)C[C@H]2C)cc1	-0.7

2 entries picked at random from the list so far, as already listed:
SMILES	A1 apoptosis 2
COc1ccc(NC(=O)N(C)C[C@@H]2Oc3ccc(NC(=O)Nc4ccc5c(c4)OCO5)cc3CC(=O)N([C@H](C)CO)C[C@@H]2C)cc1	0.2
C[C@H](CO)N1C[C@H](C)[C@@H](CN(C)S(=O)(=O)c2ccccc2)Oc2c(NC(=O)Nc3ccc4c(c3)OCO4)cccc2C1=O	-1.2

Continued.
SMILES	A1 apoptosis 2
C[C@@H]1CN([C@H](C)CO)C(=O)c2cccc(NC(=O)NC3CCCCC3)c2O[C@@H]1CN(C)C(=O)Nc1ccccc1	1.3
CC(C)NC(=O)N(C)C[C@H]1OCCCC[C@@H](C)Oc2ccc(N(C)C)cc2C(=O)N([C@H](C)CO)C[C@@H]1C	-0.3
Cc1noc(C)c1NC(=O)N(C)C[C@@H]1Oc2ccc(NC(=O)C3CC3)cc2C(=O)N([C@@H](C)CO)C[C@H]1C	0.3
C[C@@H]1CCCCO[C@H](CN(C)C(=O)CCC(F)(F)F)[C@H](C)CN([C@@H](C)CO)C(=O)c2cc(NS(C)(=O)=O)ccc2O1	-1.0
C[C@H]1CN([C@@H](C)CO)C(=O)CCCn2nncc2CO[C@@H]1CN(C)C(=O)Nc1ccccc1F	-0.4
COc1ccc(CN(C)C[C@@H]2OCCCC[C@@H](C)Oc3ccc(NS(=O)(=O)c4ccc(OC)cc4)cc3C(=O)N([C@@H](C)CO)C[C@H]2C)cc1	0.1
C[C@@H]1CN([C@H](C)CO)C(=O)c2cccc(NC(=O)Nc3cccc4ccccc34)c2O[C@H]1CN(C)S(C)(=O)=O	0.3
C[C@@H]1CCCCO[C@H](CN(C)C(=O)C2CCCCC2)[C@@H](C)CN([C@H](C)CO)C(=O)c2cc(NS(=O)(=O)c3cccs3)ccc2O1	-0.4
C[C@@H]1CN([C@@H](C)CO)C(=O)c2cc(NC(=O)CCN3CCOCC3)ccc2O[C@@H]1CN(C)C(=O)Nc1cccc2ccccc12	0.8
C[C@H]1CN([C@@H](C)CO)C(=O)Cc2cc(NS(=O)(=O)c3ccc(Cl)cc3)ccc2O[C@@H]1CN(C)S(=O)(=O)c1ccccc1	0.0
C[C@@H]1CN([C@@H](C)CO)C(=O)c2cccc(NC(=O)CCCCCC(=O)Nc3ccccc3N)c2O[C@H]1CN(C)C(=O)Nc1ccc(F)cc1	0.4

Screens from PubChem BioAssay.

Only part of the results is shown; count on the stated rates, not on these rows.
